miR-21 reporter: qHTS Assay for Modulators of miRNAs and/orActivators of miR-21 | HeLa miR-21 FLuc reporter, luciferase, 48 h | Potency, µM (doses to about 38.3 µM), without a hit: at the highest dose reporter change, positive = more light | 340,000 tested, under 10 active | AID 2288, 2010; active = well fitted rising curve with a large enough effect; inconclusive = small, poorly fitted or top-dose-only effect; inactive = no such curve, though single readings can be large or run the other way;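 note: % of control where 0% means no effect; miR-21 action dims this reporter so a rising signal means less miR-21 action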
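Luminescence from a firefly luciferase reporter carrying a miR-21 binding site downstream, stably expressed under a CMV promoter in HeLa cells that make miR-21 endogenously, reports miRNA modulation after 48 h compound exposure up to approximately 40uM final.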
Numbers without * were called inactive; ? = inconclusive. The list is partial; rates above refer to the full screens.

compound | miR-21 reporter
COc1ccc(CCNC(=O)C2CCN(c3nc4ccccc4nc3C(F)(F)F)CC2)c(OC)c1 | -5%
Cc1ccc(CNC(=O)C2CCN(S(=O)(=O)c3ccc(F)cc3)CC2)cc1 | -1%
COc1ccc(Nc2nnc(-c3cc4cc(Cl)ccc4oc3=O)s2)cc1 | -3%
COc1ccc(Cl)cc1NC(=O)Cn1nnc(C(=O)NCc2cccs2)c1N | 21%
COc1cccc(OCC(=O)Nc2nnc3n2CCS3)c1 | -3%
Cc1cc(C)c(NC(=O)c2cc(CN3CCOCC3)on2)c(C)c1 | -3%
COc1ccc(C2C(=O)N(C3CCCCCC3)CC(=O)N2CCc2ccc(OC)c(OC)c2)cc1 (stereo unspecified) | -5%
COc1ccccc1CNC(=O)C1CCN(Cc2nc(-c3ccc(OC)c(OC)c3)oc2C)CC1 | 0%
O=C(Cn1ccc2cc(S(=O)(=O)N3CCCC3)ccc21)NCc1ccccc1Cl | -1%
CCOC(=O)c1cc(-c2ccc(OC)cc2)n(CCC(=O)Nc2cccc(C)c2C)c1C | -13%
COC(=O)c1cc(C)nc2c1c(=O)nc(SCc1ccccc1C)n2C1CC1 | ?
COc1ccc(NC(=O)CC2C(=O)N(c3ccccc3)C(=O)N2CCC2=CCCCC2)cc1 (stereo unspecified) | 1%
COc1ccc(CN(Cc2ccco2)c2cnc(S(C)(=O)=O)nc2C(=O)Nc2ccc(C)c(C)c2)cc1 | 2%
Cc1c(C(=O)NCc2ccccc2Br)oc2ccc3c(c12)C(=O)CC(C)(C)O3 | -52%
Cc1ccc(C)c(N2CCN(S(=O)(=O)c3ccc4c(c3)n(C)c(=O)c(=O)n4C)CC2)c1 | 0%
Cc1ccc(Cn2c(CNS(=O)(=O)c3ccc(Cl)s3)nc3cccnc32)cc1 | 2%
CCOc1ccc(NS(=O)(=O)c2cc(Br)cc3c2N(C(=O)C2CC2)CC3)cc1 | ?
Cc1cn2c(=O)cc(COc3ccc(NC(=O)c4ccccc4C)cc3)nc2s1 | -1%
CCOC(=O)C1=C(CN2CCCCC2)NC(=O)NC1c1ccc(OC)cc1 (stereo unspecified) | -4%
O=C1C(c2ccc(F)cc2)N(CCc2ccccc2)C(=O)CN1C1CCCCC1 (stereo unspecified) | -13%
CCCOC(=O)c1c(NC(=O)c2nc3ncccn3n2)sc(C(N)=O)c1C | -5%
COc1cccc(-c2nn(C)c3sc(C(=O)NCCc4cccc(C)c4)cc23)c1 | 28%
COc1ccc(N2CCN(C(=O)Cn3cnc4nc5c(cc4c3=O)CCCC5)CC2)cc1 | 0%
COc1ccc(NC(=O)C(=O)NCc2ccco2)c(OC)c1 | -8%
CN(C)c1ccc(CNC(=O)c2ccccc2NC(=O)c2nsc3ccccc23)cc1 | -10%

(next part)
compound | miR-21 reporter
CC(C)(C)OC(=O)N1CCC(c2nnc(SCc3ccccc3Cl)o2)CC1 | 14%
Cc1c(Cl)cccc1NC(=O)c1ccc(NC(=O)N2CCSc3ncccc32)cc1 | -35%
Cc1nc(-c2ccc(S(=O)(=O)Nc3ccc(Cl)c(C(F)(F)F)c3)cc2)co1 | -15%
COc1ccc2c(c1)-c1nc(NC(=O)c3cc(OC)c(OC)c(OC)c3)sc1CC2 | ?
COc1ccc(C(=O)Nc2cc(C)c(O)c(-c3nc4ccccc4s3)c2)cc1OC | -15%
Cc1ccccc1CNC(=O)c1c(C)oc2c1C1=NCCN1C=N2 | 2%
O=C(CCS(=O)(=O)c1nc(-c2cccs2)cc(C(F)(F)F)n1)Nc1cccc(O)c1 | ?
Clc1ccc(Nc2c(-c3ccccc3Cl)nc3ccc(Cl)cn23)cc1 | ?
COc1ccc(Nc2ncc(C(=O)Nc3ccc(F)cc3F)c3ccccc23)cc1 | 14%
CCc1cccc(C)c1NC(=O)c1cc(C)nc2c1c(C)nn2-c1cccc(Cl)c1C | 0%
O=c1c2ccccc2n(Cc2c(F)cccc2Cl)c(=O)n1CCc1ccccc1 | -8%
O=C(CCN1C(=O)c2ccccc2Sc2ncccc21)Nc1ccc(F)cc1 | 2%
Cc1ccccc1NC(=O)CSc1nc(-c2ccc(F)cc2)nc2c1Cc1ccccc1O2 | 1%
CCOC(=O)c1cnc2ccc(OCC)cc2c1NCCc1ccc(OC)c(OC)c1 | -5%
COc1cc(CNc2ccc3c(c2)ncn3C(C)C)cc(OC)c1OC | 18%
CCCn1c2ccccc2c2cnn(CC(=O)N3CCC(C(=O)OCC)CC3)c(=O)c21 | -3%
Cc1cc(Cl)ccc1NS(=O)(=O)c1ccc2c(c1)CC(C)N2C(=O)C1CCC1 (stereo unspecified) | 15%
COc1ccccc1Nc1nn2c(=O)c3ccc(C(=O)NC(C)c4ccccc4)cc3nc2s1 (stereo unspecified) | 14%
Cc1ccc2nc(Nc3cccc(C(F)(F)F)c3)c3nnnn3c2c1 | -8%
CC(=O)N1c2ccccc2CC1C(=O)N1CCN(c2cccc(Cl)c2)CC1 (stereo unspecified) | 4%
Cc1oc2ncn(CC(C)C)c(=O)c2c1C(=O)NCCCN1CCCCC1 | 1%
CC(C)c1ccc(NC(=O)CN(C)S(=O)(=O)c2ccc3c(c2)c(=O)n(C)c(=O)n3C)cc1 | 3%
CCOc1ccc(CCNCc2c(C(=O)O)c(C)n(Cc3ccccc3F)c2C)cc1 | 0%
COc1ccc(-c2nc(-c3ccccc3)c(-c3ccccc3)[nH]2)cc1Br | 3%
COc1ccc2c(c1)c(=O)c(C(=O)c1ccccc1)cn2CC(=O)Nc1ccc2c(c1)OCCO2 | -1%

Fetched one by one from the list above:
compound | miR-21 reporter
Cc1oc2ncn(CC(C)C)c(=O)c2c1C(=O)NCCCN1CCCCC1 | 1%
O=C(CCN1C(=O)c2ccccc2Sc2ncccc21)Nc1ccc(F)cc1 | 2%

The list goes on.
compound | miR-21 reporter
COc1ccc(N2CCN(C(=O)c3cc4c(=O)n(Cc5cccs5)ccc4nc3C)CC2)cc1 | -4%
Clc1ccccc1-c1nnc(SCc2nc(-c3ccccc3)no2)n1-c1ccccc1 | ?
O=S(=O)(c1ccccc1)c1nc(-c2ccccc2Cl)oc1N1CCCCCC1 | -4%
Cc1ccc(Cl)cc1NC(=O)CSc1ccc(C(=O)O)cn1 | -1%
COc1ccc(CCNc2nc3ccc(Cl)cc3n3cnnc23)cc1OC | -2%
Cc1ccc2c(=O)cc(C(=O)Nc3nc4ccc(Cl)cc4s3)oc2c1C | -5%
Cc1ccc(NC(=O)c2cnc(N3CCCCC3)c3ccccc23)c(C)c1 | 1%
COc1ccc(OCc2nc(-c3ccc(-n4cccc4)cc3)no2)cc1 | -8%
Cc1cccc(C(=O)Nc2ccc(OCc3cc(=O)n4c5c(sc4n3)CCCC5)cc2)c1 | 1%
CC(C)(C)CC(C)(C)c1ccc(OCC(=O)Nc2ccc(S(=O)(=O)Nc3ncccn3)cc2)cc1 | -2%
Cc1ccc(-c2cc(C(=O)Nc3ccc(SC(F)F)cc3)no2)cc1F | 11%
NC(=O)CSc1nc2c(oc3ccccc32)c(=O)n1-c1ccccc1F | -22%
COc1ccc(-c2nc(SCc3cc(=O)c4cc(C)ccc4[nH]3)n[nH]2)cc1 | 9%
O=C(CCC1N=C2c3ccccc3N=C(SCc3ccc(Cl)cc3)N2C1=O)NCc1cccs1 (stereo unspecified) | 28%
COc1ccc(NC(=O)c2cn(CC(C)C)c(=O)c3cc(OC)c(OC)cc23)cc1Cl | 23%
Cc1ccc(NC(=O)Cn2c(=O)n(Cc3nc(-c4ccccc4)no3)c(=O)c3ccccc32)cc1C | 6%
Cc1ccc(CCNC(=O)c2cc(-c3ccc(Cl)cc3)n[nH]2)cc1 | -4%
COc1ccc(CCNC(=O)CCCn2c(=O)c3cccn3c3cccnc32)cc1OC | -11%
CCOC(=O)N1CCc2c(sc3c2c(=O)n(-c2ccc(CC)cc2)c(=O)n3Cc2cccc(Cl)c2)C1 | -2%
CC(C)(C)OC(=O)N1CCC(c2c(C(=O)N3CCCCC3)cnn2-c2ccc(Cl)cc2)CC1 | -1%
Cn1c(C(=O)Nc2cccc(C(F)(F)F)c2)cc2c(=O)n3ccccc3nc21 | -11%
Cc1ccc(NC(=O)Cn2c(=O)n(-c3ccccc3)c(=O)c3ccc(C(=O)NCc4ccc5c(c4)OCO5)cc32)cc1 | -10%
CCc1ccc(S(=O)(=O)c2nnn3c2nc(N2CCN(CC)CC2)c2sccc23)cc1 | -9%
COc1ccc(C(=O)Nc2nc3n(n2)C(c2ccc(F)cc2)C=C(c2ccc(Cl)cc2)N3)cc1 (stereo unspecified) | 6%
CC1CN(C(=O)N2CCC(C(=O)NCc3ccco3)CC2)c2ccccc2O1 (stereo unspecified) | 22%

3 structures out of the list, arranged by formula weight, highest first.
compound | miR-21 reporter
Cc1ccc(NC(=O)Cn2c(=O)n(Cc3nc(-c4ccccc4)no3)c(=O)c3ccccc32)cc1C | 6%
Cc1ccc(-c2cc(C(=O)Nc3ccc(SC(F)F)cc3)no2)cc1F | 11%
Cc1ccc(CCNC(=O)c2cc(-c3ccc(Cl)cc3)n[nH]2)cc1 | -4%

New compounds follow.
compound | miR-21 reporter
Cc1ccnc(NS(=O)(=O)c2ccc(NC(=O)c3cc(=O)c4ccc(C)c(C)c4o3)cc2)n1 | -10%
O=c1c2oc3ccccc3c2n(Cc2ccccc2F)c(=O)n1Cc1ccco1 | 3%
COc1ccc(CCNc2nc3c(c(=O)n(C)c(=O)n3C)n2Cc2ccc(F)cc2)cc1OC | 30%
O=C(COc1ccccc1)NCC(c1cccs1)S(=O)(=O)c1ccc(Cl)cc1 (stereo unspecified) | 2%
CCOCCCn1c(SCC(=O)Nc2cc(C)ccc2C)nc2c(oc3ccccc32)c1=O | -1%
Nc1c(C(=O)NCc2ccccc2)nnn1Cc1cccc(Br)c1 | 24%
CCOc1ccc(-n2c(=O)c3c(C)c(C)sc3n(CC(=O)Nc3ccc(CC)cc3)c2=O)cc1 | 1%
Cc1cccc(C(=O)Nc2cccc(OCc3cc(=O)n4c(C)csc4n3)c2)c1 | -14%
CC1CCC(NC(=O)c2ccc(CS(=O)(=O)c3cccc(C(F)(F)F)c3)o2)CC1 (stereo unspecified) | 15%
COC(=O)c1ccc(Oc2nc3c(c(=O)n(C)c(=O)n3C)n2C(C)C)cc1 | -1%
COc1ccc(OC)c(NCc2cccn2-c2nnc(N3CCC(C)CC3)s2)c1 | -11%
CCCNC(=O)C1CCN(Cc2cc3ccccc3n2Cc2ccccc2)CC1 | 22%
COc1ccccc1Cc1nc2ccccc2nc1SCC(=O)Nc1ccccc1C(F)(F)F | -1%
CCOc1ccc(N2C(=O)CS(=O)(=O)C23C(=O)N(Cc2cccc(Cl)c2)c2ccccc23)cc1 (stereo unspecified) | -4%
Cc1coc2c(C)c3oc(=O)c(CC(=O)NCc4ccccc4)c(C)c3cc12 | 10%
Cc1ccc(C)c(NC(=O)CN2C(=O)CSc3nc(C)cc(C)c32)c1 | -1%
Cc1ccccc1CC1C(=O)Nc2ccc(Br)cc21 (stereo unspecified) | ?
COc1ccc2c(c1)c1c(c(=O)n(-c3ccccc3C)c(=O)n1Cc1ccccc1C)n2C | -2%
O=S(=O)(NCC(c1ccco1)N1CCOCC1)c1cc(F)ccc1F (stereo unspecified) | 1%
CCN1C(=O)c2ccccc2Sc2ccc(NC(=O)c3ccc(Cl)cc3)cc21 | -5%
Cc1ccc(NC(=O)Cc2ccc(NC(=O)N3CCCCc4ccccc43)cc2)cc1 | -3%
Clc1ccc(CSc2nc3ncccc3[nH]2)cc1 | -38%
Cc1ccc(CNC(=O)CNS(=O)(=O)c2cccs2)cc1 | -2%
COc1ccc(NC(=O)NCc2c(-n3cccc3)sc3c2CCCC3)c(OC)c1 | -16%
Cn1c(=O)nc2n(-c3ccc(Cl)c(Cl)c3)c3cc(Cl)ccc3cc-2c1=O | -2%

(continued)
compound | miR-21 reporter
Cc1ccc(-c2cc(-c3ccccc3)c(C#N)c(SCC(O)CS(=O)(=O)Cc3ccccc3)n2)cc1 (stereo unspecified) | 0%
O=C(Nc1ccccc1C(F)(F)F)C1CCN(S(=O)(=O)Cc2ccccc2)CC1 | -2%
COc1cc(C2Nc3ccccc3-c3cc(C)nn32)ccc1O (stereo unspecified) | -17%
CC1(C)N=C(SCc2ccc(Cl)cc2)c2ccccc2N1 | 22%
Cc1c(-c2ccc(Cl)cc2)c(=O)oc2c(CN3CCCC3)c(O)ccc12 | -14%
CCNC(=O)c1c(NC(=O)c2nc(S(=O)(=O)CC)ncc2Cl)sc2c1CCCC2 | ?
CCN1CCc2nc3sc(C(=O)c4ccccc4)c(N)c3cc2C1 | 2%
CN(C)c1ccc(C(=O)Nc2sc(Nc3ccccc3)nc2C(N)=O)cc1 | -37%
CCc1ccc(NCc2cc3ccc(OC)cc3n(CC(=O)Nc3c(C)cc(C)cc3C)c2=O)cc1 | 1%
CCOC(=O)c1c(SCC(=O)Nc2nc3ccc(C)cc3s2)nc(=O)[nH]c1C | -5%
Cc1ccc(-n2nc(C)c3nc(CCC(=O)Nc4cccc(C)c4C)c(=O)n(C)c32)cc1 | 1%

Exported with values ahead of the structure: part of the list above
miR-21 reporter,mol
?,CCOc1ccc(NS(=O)(=O)c2cc(Br)cc3c2N(C(=O)C2CC2)CC3)cc1
-1%,COc1ccc2c(c1)c(=O)c(C(=O)c1ccccc1)cn2CC(=O)Nc1ccc2c(c1)OCCO2
-1%,Cc1ccc(CNC(=O)C2CCN(S(=O)(=O)c3ccc(F)cc3)CC2)cc1
11%,Cc1ccc(-c2cc(C(=O)Nc3ccc(SC(F)F)cc3)no2)cc1F

Screens: PubChem BioAssay, National Center for Advancing Translational Sciences (NCATS)
